# Assay outcomes: PubChem BioAssay, several laboratories
# VCAM-1 rise: enhancers of VCAM-1 display on endothelial cells, cell-based, plate reader, pooled HUVEC, TNFa stimulus (AID 455) | augmentation, % at 5 µM | HUVEC TNFa-induced VCAM-1 immunofluorescence, plate reader; numbers were filed only for top-ranked candidate wells | 10,000 compounds, 0.2% hits;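 active means a compound raising TNF-alpha-driven VCAM-1 surface staining, with its hit status upheld on visual or statistical review; inactive means the rest, including hits rejected on review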;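 further: 0% = TNFa with vehicle and 100% = strongest image-checked hit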
# Proteasome disasm: blocks ATP-dependent breakdown of the yeast 26S proteasome; anti-FLAG beads, GFP-proteasome disassembly, flow cytometry; inhibition of disassembly, % (concentration not given with the values); 24,000 compounds, 0.2% hits;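 active means above 40%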;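 further: plate controls were ATP control with full disassembly for no effect and ATP-gamma-S intact proteasomes for full effect; higher percent means more bead fluorescence retained so stronger block of disassembly; stock transfer was 100 nL into about 10 µL; wells with too few beads may also be inconclusive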
# Numbers without * were called inactive; i = inactive; x = not tested or not shown.
1. N#CC1=C(N)N(c2ccccc2)C(c2ccco2)C1(C#N)C#N (stereo unspecified)
2. CC(=O)c1c(N2CCOCC2)nc(=S)n(Cc2ccccc2)c1C
3. CCOC(=O)N1CCN(C(=O)c2cnn3c(C)c(Cc4ccc(C)cc4)c(C)nc23)CC1
4. COc1ccc(C(=O)NCCn2ccc3ccccc32)cc1
5. CCCOc1ccc(NC2=CC(=O)CC(C)(C)C2)cc1

assay / compound	1	2	3	4	5
VCAM-1 rise	i	x	x	i	i
Proteasome disasm	1.2	2.6	0.7	-2.6	0.8

6. O=C(c1cc(-c2ccc3c(c2)OCO3)on1)N1CCN(c2ccc(F)cc2)CC1
7. CCOC(=O)N1CCC2(CC1)CC(=O)c1c(ccc3oc(C(=O)O)c(C)c13)O2
8. CCC(C)NC(=O)CCCCCn1c(=O)[nH]c2cc(OC)c(OC)cc2c1=O (stereo unspecified)
9. COc1ccc(NC(=O)CN(c2ccc(C)cc2)S(C)(=O)=O)c(OC)c1
10. COc1ccc(-c2nc(CS(=O)(=O)CC(=O)Nc3ccc(Cl)cc3)c(C)o2)cc1

assay / compound	6	7	8	9	10
VCAM-1 rise	x	i	x	i	x
Proteasome disasm	-0.3	-0.4	0.1	-1.7	0.2

11. O=C1CC(N2CCC(C(=O)N3CCCCC3)CC2)C(=O)N1 (stereo unspecified)
12. Cc1cc(C)c(S(=O)(=O)N2CCN(CCO)CC2)c(C)c1
13. CCn1c(=O)c2cc(C(=O)Nc3cc(C)on3)sc2c2ccccc21
14. COc1ccc(-c2ccc(CCC(=O)O)n2NC(=O)c2cccs2)cc1
15. COc1ccc(C(CC(=O)NC(C)(C)C)n2cccc2)cc1 (stereo unspecified)

assay / compound	11	12	13	14	15
VCAM-1 rise	i	x	x	i	x
Proteasome disasm	-0.3	1.2	-2.7	0.3	-0.7

# A different layout for some results above.
No.	SMILES	VCAM-1 rise	Proteasome disasm
11	O=C1CC(N2CCC(C(=O)N3CCCCC3)CC2)C(=O)N1 (stereo unspecified)	i	-0.3
12	Cc1cc(C)c(S(=O)(=O)N2CCN(CCO)CC2)c(C)c1	x	1.2
13	CCn1c(=O)c2cc(C(=O)Nc3cc(C)on3)sc2c2ccccc21	x	-2.7
14	COc1ccc(-c2ccc(CCC(=O)O)n2NC(=O)c2cccs2)cc1	i	0.3

# One compound at a time, as listed above:
# Shown for CC(=O)c1c(N2CCOCC2)nc(=S)n(Cc2ccccc2)c1C = VCAM-1 rise = x; Proteasome disasm = 2.6
# Shown for O=C(c1cc(-c2ccc3c(c2)OCO3)on1)N1CCN(c2ccc(F)cc2)CC1 = VCAM-1 rise = x; Proteasome disasm = -0.3

# (cont.)
16. COc1ccc(OC)c(CCNC(=O)CS(=O)(=O)Cc2nc(-c3ccccc3C)oc2C)c1
17. CC(C)(C)C(=O)CN1CCN(S(=O)(=O)c2ccc(F)cc2)CC1
18. Cc1ccnc(NC(=O)Nc2ccc3c(c2)N(C)C(=O)CS3)c1
19. Cc1ccc(S(=O)(=O)C(C#N)c2nc3ccccc3nc2OC(C)C)cc1 (stereo unspecified)
20. O=C(COC(=O)c1cncc(Br)c1)NCCC1=CCCCC1

assay / compound	16	17	18	19	20
VCAM-1 rise	x	x	x	i	i
Proteasome disasm	-0.1	-1.6	2.4	-0.4	3.6

21. COc1ccccc1NC(=O)N(Cc1ccccc1)c1ccccn1
22. O=C1C2=C(c3ccccc31)[N+](=O)[C@@H]1CCCC[C@@H]1N2[O-]
23. CCOc1ccccc1-c1nc(-c2ccc(NC(=O)c3ccc(Br)o3)cc2)no1
24. COc1cc(NC(=O)CN2CCN(S(=O)(=O)c3ccc(C(C)C)cc3)CC2)cc(OC)c1
25. COc1ccc(Cl)cc1NC(=O)C1CSC(c2ccncc2)=N1 (stereo unspecified)

assay / compound	21	22	23	24	25
VCAM-1 rise	i	x	x	x	x
Proteasome disasm	2.8	-0.3	0.1	-2.0	2.5

# Reformatted with the structure last: part of the list above.
No.	VCAM-1 rise	Proteasome disasm	structure
25	x	2.5	COc1ccc(Cl)cc1NC(=O)C1CSC(c2ccncc2)=N1 (stereo unspecified)
22	x	-0.3	O=C1C2=C(c3ccccc31)[N+](=O)[C@@H]1CCCC[C@@H]1N2[O-]

# Additional compounds.
26. O=C(O)CN1C(=O)COc2cc(S(=O)(=O)N3CCCC3)ccc21
27. CC(=O)Nc1ccc(NC(=O)Cn2cc3c(n2)CCCC3)cc1
28. NC1=NC(c2ccc(Br)cc2)n2c(nc3ccccc32)N1 (stereo unspecified)
29. COc1ccccc1NC(=O)Cc1noc(CSc2cc(C)c3ccccc3n2)n1
30. Cc1cc(O)c(-c2cc(C(=O)Nc3ccc(S(=O)(=O)N4CCOCC4)cc3)[nH]n2)cc1C

assay / compound	26	27	28	29	30
VCAM-1 rise	x	x	i	i	i
Proteasome disasm	3.5	0.5	2.1	16	-0.5

31. O=C1CCCc2nc(N3CCCCC3)sc21
32. Cn1c(C(=O)N2COCC2(C)C)cc2c(=O)n3ccccc3nc21
33. COCCn1c(=O)[nH]c2cc(C(=O)OC)ccc2c1=O
34. CCc1ccc(NC(=O)CS(=O)CC(=O)NCC2OCCc3ccccc32)cc1 (stereo unspecified)
35. Cn1c(=O)c(=O)n(C)c2cc(S(=O)(=O)N3CCC(Cc4ccccc4)CC3)ccc21

assay / compound	31	32	33	34	35
VCAM-1 rise	i	x	x	i	x
Proteasome disasm	-0.4	0.5	2.7	2.2	-0.1

36. COc1ccc2nc3oc(C(=O)NCc4cccs4)cc3cc2c1
37. CSc1nc2c(c(=O)n1Cc1ccccc1)SC(C)C2 (stereo unspecified)
38. Cc1ccc2c(c1)[C@H]1OCC[C@H]1[C@@H](c1ccncc1)N2
39. CC1(C(=O)CSc2nc3ccccc3s2)CCC(=O)O1 (stereo unspecified)
40. O=c1cc(N2CCc3ccccc3C2)[nH]c(=O)n1Cc1ccc(F)cc1

assay / compound	36	37	38	39	40
VCAM-1 rise	x	x	x	i	x
Proteasome disasm	-0.8	2.4	0.4	9.2	3.4

41. COc1ccc(-c2[nH]c(-c3cccc(OC)c3)nc2SCC(=O)NCc2ccco2)cc1
42. Cc1[nH]c(=O)[nH]c(=O)c1S(=O)(=O)N1CCCC(C(=O)NCCc2ccccc2)C1 (stereo unspecified)
43. COc1ccc2cc(C(c3nnnn3C(C)(C)C)N3CCc4ccccc4C3)c(=O)[nH]c2c1 (stereo unspecified)
44. CCOC(=O)Cc1csc(NC(=O)c2cnc3scc(C)n3c2=O)n1
45. CCN1CCN(c2ncc(C(=O)Nc3cc(Cl)ccc3OC)c3ccccc23)CC1

assay / compound	41	42	43	44	45
VCAM-1 rise	i	x	i	x	x
Proteasome disasm	1.3	-0.8	3.5	0.4	2.0

46. Cc1occc1C(=O)Nc1cccnc1
47. Brc1ccc(-c2csc(/N=C/N3CCOCC3)n2)cc1
48. COc1ccc(C)cc1NC(=O)CN1C(=O)c2ccccc2S1(=O)=O
49. O=C(Nc1ccc(Cl)cc1)N(Cc1cccnc1)Cc1ccco1
50. O=C(Cn1ncc2ccccc21)N1CCN(c2cccc(C(F)(F)F)c2)CC1

assay / compound	46	47	48	49	50
VCAM-1 rise	i	i	x	x	i
Proteasome disasm	0.7	0.3	0.2	-8.1	0.6

51. O=C(Cn1nc(Cc2ccncc2)c2ccccc2c1=O)N1CCc2ccccc2C1
52. CC(=NCC1CCNCC1)C1=C(O)CC(C)(C)CC1=O
53. O=C1OC(c2ccc(O)cc2)(c2ccc(O)cc2)c2ccccc21
54. O=C(NCc1ccco1)C(c1ccco1)N(C(=O)Cn1nnc2ccccc21)c1ccc2c(c1)CCC2 (stereo unspecified)
55. CCSc1nnc(NC(=O)CSc2ncccn2)s1

assay / compound	51	52	53	54	55
VCAM-1 rise	i	i	i	i	i
Proteasome disasm	1.0	-0.2	-1.9	4.8	0.4

56. CC(C(=O)N1CCOCC1)N1c2cccc3cccc(c23)S1(=O)=O (stereo unspecified)
57. Cc1ccc(-c2noc(CCC(=O)NCCCN3CCN(c4ccc(F)cc4)CC3)n2)cc1
58. O=C(CCSc1nc(-c2ccco2)cc(C(F)(F)F)n1)Nc1ccc2c(c1)OCO2
59. CCn1c2c(c3cc(Cl)ccc31)CCCC2=O
60. COc1ccc(Cn2c(CCC(=O)Nc3ccc(CC#N)cc3)nc3cccnc32)cc1

assay / compound	56	57	58	59	60
VCAM-1 rise	i	x	i	x	x
Proteasome disasm	-0.8	0.2	-2.6	5.8	-0.5

61. COc1ccc(-n2c(Cn3c(=O)sc4ccccc43)nnc2SCC(=O)N2CCCCC2)cc1
62. CCN(CC)CC#CCOC(=O)C(O)(c1ccccc1)C1CCCCC1 (stereo unspecified)
63. COc1ccccc1CN1C(=O)C2CC=CCC2C1=O (stereo unspecified)
64. Cc1cc(NC(=O)c2cc(-c3ccc4c(c3)OCO4)on2)n(-c2ccccc2)n1
65. CC(=O)N1CCc2cc(C(=O)CN3CCCN(Cc4ccc(F)cc4)C3)ccc21

assay / compound	61	62	63	64	65
VCAM-1 rise	x	i	x	x	x
Proteasome disasm	2.9	-0.8	-2.9	-1.4	-2.5

66. COc1ccc(C2SCC(C(=O)O)N2C(C)=O)cc1OC (stereo unspecified)
67. Cn1cnnc1SCC(=O)Nc1ccccc1Sc1ccccc1
68. Cc1ccc(C(c2sc3nc(C)nn3c2O)N2CCOCC2)cc1 (stereo unspecified)
69. NC(=O)CSc1nnc(Cn2c(=O)sc3ccccc32)n1-c1ccccc1
70. CCOC(=O)c1sc(=NC(=O)c2ccc(S(=O)(=O)N3CCOCC3)cc2)n(C)c1C

assay / compound	66	67	68	69	70
VCAM-1 rise	x	i	x	x	x
Proteasome disasm	-3.5	1.6	0.5	0.1	0.8

71. CCOCCCNC(=O)Cn1nc(-c2ccccc2)ccc1=O
72. CN(C)c1ccc(NC(=O)CSCc2nc3c(nnn3Cc3ccc(F)cc3)c(=O)[nH]2)cc1
73. CCOC(=O)C1=C(N)n2c(s/c(=C\c3cccnc3)c2=O)=C(C#N)C1c1cccnc1 (stereo unspecified)
74. CCCCOC(=O)C1=C(C)Nc2ncnn2C1c1ccc(OC)c(OC)c1 (stereo unspecified)
75. Cc1cc(NC(=O)C2CCCN(S(=O)(=O)c3c(C)noc3C)C2)n[nH]1 (stereo unspecified)

assay / compound	71	72	73	74	75
VCAM-1 rise	x	i	x	x	x
Proteasome disasm	0.1	0.8	1.4	-0.3	4.8

76. Clc1ccc2c(c1)[C@H]1OCC[C@H]1[C@@H](c1ccco1)N2
77. COc1cc(C2N(c3ccc(Cl)cc3)C(=O)C3CCCN32)cc(OC)c1OC (stereo unspecified)
78. COc1ccccc1N1CCN(C(=O)c2cc(C3CC3)on2)CC1
79. Cc1ccccc1-c1nc(CN2CCC(C(=O)NCCCN3CCOCC3)CC2)c(C)o1
80. CCC12CN3CC(CC)(CN(C1)C3c1ccc(OC(C)C)cc1)C2=O (stereo unspecified)

assay / compound	76	77	78	79	80
VCAM-1 rise	i	x	i	i	x
Proteasome disasm	-0.2	8.6	-0.3	-0.7	0.5

81. Cc1ccc(C2CC(c3ccc(C)cc3)n3nc(N)nc3N2)cc1 (stereo unspecified)
82. COc1cccc(C2=NC(C)(C)NC(c3ccccc3O)C2)c1 (stereo unspecified)
83. COc1ccc(NC(=O)CCc2nc(-c3ccc(C)cc3)no2)c(OC)c1
84. Cc1cc(C)n(-c2nc3c(c(=O)[nH]c(=O)n3C)n2Cc2ccc(F)cc2)n1
85. Cc1c(NC(=O)c2cc(C(C)C)on2)c(=O)n(-c2ccccc2)n1C

assay / compound	81	82	83	84	85
VCAM-1 rise	i	x	x	i	x
Proteasome disasm	-1.1	-1.4	0.6	0.8	0.1

86. CCOC(=O)N1CCN(C(=O)C2CC(c3cc(OC)ccc3OC)=NO2)CC1 (stereo unspecified)
87. COc1cccc(C2=NOC(C(=O)NC(C)(C)C)C2)c1 (stereo unspecified)
88. CCOc1ccc(N(CC)C(=O)COc2cc(=O)n(C)c3ccccc23)cc1
89. CCCN(c1nc(C)cc(OC)n1)S(=O)(=O)c1ccccc1
90. CC(=O)c1ccc(N2CCN(C(=O)C3CCCN(S(=O)(=O)c4cnc[nH]4)C3)CC2)cc1 (stereo unspecified)

assay / compound	86	87	88	89	90
VCAM-1 rise	x	x	i	x	x
Proteasome disasm	0.3	1.7	-0.7	0.8	1.1

91. CC(=O)Nc1cccc(C(=O)Oc2cccc(C)c2)c1O
92. CCOC(=O)N1CCC(NC(=O)c2cccc3c2C(=O)N(CCOC)C3)CC1
93. CCOC(=O)C1=C(N)OC2=C(C(=O)CC(C)(C)C2)C1c1ccco1 (stereo unspecified)
94. O=C(CSc1nnc(Cc2cc(=O)[nH]c(=O)[nH]2)n1-c1ccc(Cl)cc1)NCC1CCCO1 (stereo unspecified)
95. CC(C)OC(=O)CSc1nnc(-c2cccnc2)n1Cc1ccccc1
96. Cc1n[nH]c(C)c1S(=O)(=O)N(CC(=O)N1CCc2ccccc21)c1ccc(C(C)C)cc1
97. COc1cccc(-c2nnc(SCC(N)=O)n2-c2ccc(Cl)cc2)c1

assay / compound	91	92	93	94	95	96	97
VCAM-1 rise	x	x	i	x	i	x	i
Proteasome disasm	0.9	0.1	0.2	2.9	10	2.4	0.9

# Some of the compounds tested, so the mix of outcomes need not match the whole.
